HSD17B inh – blocks hydroxysteroid 17-beta dehydrogenase activity. Q99714. recombinant HSD17B10, NADH fluorescence kinetic; many of its hits are not listed in these tables. Potency, µM (highest dose often 57.1 µM), without a hit: top-dose activity change, negative = inhibition, usual class: inhibitors. hit rate 7.6% among 75,000; active = well fitted inhibition curve with a large enough effect; inconclusive = small, poorly fitted or top-dose-only effect; inactive = no such curve, though single readings can be large or run the other way;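 also: the protocol describes HADH2 (HSD17B10) and not the HSD17B4 of the title; nearly all actives have a fitted effect of over 70% in size; most hits overshoot -100% by far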
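Activity followed as NADH fluorescence increase (ex 360, em 450 nm) every 30 seconds for 4 min, using final 90 uM beta-hydroxybutyryl CoA and 1 mM NAD+. Recombinant His-tagged enzyme, 20 nM, pH 9.0 Tris buffer, 15 min compound preincubation.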
Active calls of the source: *; ? = inconclusive; [ ] = dose if it differs, or a comment. % is scaled to controls: 0 for no effect and ±100 for the full control effect; potency is read from the fitted curve at half-maximal effect.

A first look (four entries):
| compound | HSD17B inh |
| --- | --- |
| Cc1ccc(-c2cc(C(=O)Nc3cc(C)ccc3C)[nH]n2)c(O)c1 | -6.0% |
| CCc1cccc(C)c1NC(=O)c1cc(C)oc1C | 1.3% |
| CCCCNC(=O)c1sc(=S)n2c1[nH]c(=O)c1ccccc12 | ? |
| O=C(c1ccc(Cl)cc1Cl)C1(n2cncn2)Oc2ccccc2C1O (stereo not drawn) | -5.9% |

All compounds of this part (from the top)
| compound | HSD17B inh |
| --- | --- |
| Cc1ccc(-c2cc(C(=O)Nc3cc(C)ccc3C)[nH]n2)c(O)c1 | -6.0% |
| CCc1cccc(C)c1NC(=O)c1cc(C)oc1C | 1.3% |
| CCCCNC(=O)c1sc(=S)n2c1[nH]c(=O)c1ccccc12 | ? |
| O=C(c1ccc(Cl)cc1Cl)C1(n2cncn2)Oc2ccccc2C1O (stereo not drawn) | -5.9% |
| O=S(=O)(NCCCCCNS(=O)(=O)c1ccccc1)c1ccccc1 | -5.5% |
| CCn1c(=O)c(C(=O)NCc2ccc(OC)c(OC)c2)c(O)c2ccccc21 | -9.3% |
| CCC(c1ccccc1)c1nc(-c2ccccn2)no1 (stereo not drawn) | -0.1% |
| NC(=O)N/N=C/c1ccc([N+](=O)[O-])o1 | -5.4% |
| Cc1nnc(SCc2ccc(F)cc2)s1 | 11.2% |
| Cc1ccccc1CS(=O)(=O)Cc1ccc(C(=O)NCc2ccccn2)o1 | ? |
| CCn1c(SCC(=O)N2CCCc3ccccc32)nnc1-c1ccco1 | 2.4% |
| CCN(C(=O)CSc1nc2nc(C)cc(C)n2n1)c1cccc(C)c1 | -10.1% |
| COC(=O)c1ccc(CSc2nc(-c3ccccc3)cs2)o1 | -20.1% |
| COc1ccc(OC)c(S(=O)(=O)N(C)CC(=O)N2CCN(c3ccc(F)cc3)CC2)c1 | 7.6% |
| O=c1c2ccccc2nnn1CSc1nnc2sc3ccccc3n12 | -13.8% |
| CCC(C)N(CCNC(=O)CC1Oc2ccccc2NC1=O)C1CCCCC1 (stereo not drawn) | 1.4% |
| Cc1ccc(F)cc1NC(=O)c1cccc2nccnc12 | 4.1% |
| COc1cc(CO)cc(Br)c1OCc1cccnc1 | 4.4% |
| CCOC(=O)CSc1ccc2nnc(-c3ccncc3)n2n1 | ? |
| C[C@@H]1NC(=O)[C@@H](C)COC(=O)[C@H](C)NC(=O)[C@@H](C)COC1=O | 0.4%[11.4 µM] |
| Cc1cc(C)nc(NC(=O)c2cnc3sccn3c2=O)n1 | ? |
| COc1cccc(C(=O)Cn2c(Br)nc3c2c(=O)n(C)c(=O)n3C)c1 | -0.2% |
| CN(C1CCCCC1)S(=O)(=O)c1ccc(-n2cnnn2)cc1 | 9.0% |
| C=CCOc1nc(N(C)C)nc(N(C)C)n1 | 7.6% |
| CCCCN(C(=O)CNC(=O)c1ccco1)C(C(=O)NC1CCCCC1)c1ccc(OC)cc1OC (stereo not drawn) | 15.9% |
| CCOC(=O)N1CCN(Cc2nc3c(c(=O)n(C)c(=O)n3C)n2Cc2cccc(C)c2)CC1 | 3.0% |
| CCN(CC)CCNC(=O)c1c(O)c2cc(OC)c(OC)cc2[nH]c1=O | ? |
| CCOc1ccc(-n2nc(C(=O)NCCOC)c3ccccc3c2=O)cc1 | -2.8% |
| O=C(CN1CCCC1)Nc1ccc(Oc2ccc(NC(=O)CN3CCCC3)cc2)cc1 | 9.3% |
| COc1ccc(-c2cc3n(n2)CCc2nc4ccccc4n2-3)cc1 | ? |

3 compounds drawn at random from the list so far:
| compound | HSD17B inh |
| --- | --- |
| CCCCN(C(=O)CNC(=O)c1ccco1)C(C(=O)NC1CCCCC1)c1ccc(OC)cc1OC (stereo not drawn) | 15.9% |
| Cc1ccc(F)cc1NC(=O)c1cccc2nccnc12 | 4.1% |
| CCOC(=O)N1CCN(Cc2nc3c(c(=O)n(C)c(=O)n3C)n2Cc2cccc(C)c2)CC1 | 3.0% |

Next section
| compound | HSD17B inh |
| --- | --- |
| c1nc(NCCN2CCOCC2)c2sc3nc(N4CCOCC4)c4c(c3c2n1)CCC4 | 7.3% |
| c1ccc(Cn2ncc3c(NCc4ccco4)ncnc32)cc1 | 1.4% |
| O=C(CN(Cc1ccccc1F)S(=O)(=O)c1ccc(Cl)cc1)NCCCO | -0.4% |
| O=C(O)CCCCCNC(=O)c1ccncc1 | 9.1% |
| O=C(C1CCCN(Cc2ccncc2)C1)N1CCc2ccccc2C1 (stereo not drawn) | -5.3% |
| CCOc1ccc(Cn2c(=O)oc3ccc(C)cc32)cc1OC | 3.5% |
| CCc1cccc(NC(=O)CCS(=O)(=O)c2cccc3nonc23)c1 | 8.3% |
| COc1cc(/C=C/c2ccccc2)oc(=O)c1 | -2.2% |
| Cc1ccc2c(c1)cc(CN(Cc1ccccc1)C(=O)N(C)C)c1nnnn12 | 1.7% |
| Cc1cc(NC(=O)CCC(=O)N(c2ccccc2)C(C(=O)NCC2CCCO2)c2cccnc2)no1 (stereo not drawn) | 6.7% |
| COc1ccc(N)c(OC)c1 | 3.3% |
| CC(CC(=O)O)NCC1COc2ccccc2O1 (stereo not drawn) | -6.3% |
| NC(CC(=O)O)c1cccc(OCc2ccccc2)c1 (stereo not drawn) | 2.4% |
| CC[C@@]12CCCN3CCc4c(n(c5ccccc45)C(=O)C1)[C@H]32 | -1.6%[11.4 µM] |
| COc1ccc(CN/C(C)=C(/C#N)C(N)=O)cc1OC | 14.3% |

Further records follow.
structure	HSD17B inh
O=Nc1c(-c2c(O)[nH]c3ccccc23)[nH]c2ccccc12	-9.0%
Cc1occc1C(=O)N1CCCc2ccccc21	-3.9%
COc1cc(C(O)c2nc3ccccc3n2C)cc(OC)c1OC (stereo not drawn)	9.0%
Cc1c(C(=O)NCc2ccccc2)oc2ccc(S(=O)(=O)N3CCC4(CC3)OCCO4)cc12	1.5%
Cc1cccc(OCCOCCN2CCOCC2)c1C	-1.6%
O=C1CC(c2ccc(Cl)c(Cl)c2)CC(O)=C1C=NCCN1CCNCC1 (stereo not drawn)	-3.7%
CC1(C)Cc2c(c(=S)nc(-c3ccccc3)n2CCO)CO1	-24.8%
C[C@H](CCC(=O)O)[C@H]1CC[C@]2(C)[C@@H]3C(=O)C[C@H]4C(C)(C)[C@@H](O)CC[C@]4(C)[C@H]3C(=O)C[C@@]12C	1.1%[11.4 µM]
CCOc1ccccc1C1CC(=O)NC2=C1C(=O)CCC2 (stereo not drawn)	0.7%
COC(=O)CSc1nnc(CNC(=O)Cc2ccccc2)n1-c1ccccc1OC	-4.9%
CCOc1cc2[nH]c(=S)n(CCCN3CCOCC3)c(=O)c2cc1OCC	-8.4%
Cc1cc(OCc2nc(-c3cccnc3)no2)c(C)cc1Br	7.0%
O=C(Cn1cnc2scc(-c3ccccc3)c2c1=O)N1CCOCC1	-0.2%
COC(=O)C1C(=O)c2c([nH]c(C(=O)OC3CCCC3C)c2C)CC1C (stereo not drawn)	-3.7%
COc1ccc(S(=O)(=O)N2CCCC(C(=O)Nc3ccc(NC(=O)c4ccccn4)cc3)C2)cc1 (stereo not drawn)	?

Given field by field: part of the list above
> COC(=O)CSc1nnc(CNC(=O)Cc2ccccc2)n1-c1ccccc1OC
- HSD17B inh: -4.9%
> CCOc1cc2[nH]c(=S)n(CCCN3CCOCC3)c(=O)c2cc1OCC
- HSD17B inh: -8.4%

Further results follow:
structure	HSD17B inh
CCOc1ccc(NC(=O)CN(c2ccc(OC)cc2)S(C)(=O)=O)cc1	6.0%
COc1ccccc1CC(=O)Nc1ccc(OC)c(OC)c1	-2.7%
CCCc1nc2ccccc2c(=O)n1/N=C/c1ccc(O)cc1	2.7%
COc1ccc(OC)c(NC2c3ccccc3C(=O)N2Cc2ccc3c(c2)OCO3)c1 (stereo not drawn)	-9.8%
CC(=O)N(Cc1cc(=O)[nH]c2ccccc12)c1ccccc1	-4.1%
O=C(O)CCc1ccc(-c2ccc(F)cc2)n1NC(=O)c1ccco1	-25.9%
CCn1c(-c2ccc3[nH]c(C)c(C)c3c2)n[nH]c1=S	?
CC(=O)C1C(=O)CC(C)(O)C(C(C)=O)C1c1ccc(N(C)C)cc1 (stereo not drawn)	4.0%
COc1ccc(-c2noc(COc3ccc(C)c(C)c3)n2)cc1OC	-12.8%
C[C@H](O)CO[C@H]1[C@H]2O[C@H]3[C@H](O)[C@@H](O)[C@@H](O[C@H]4[C@H](O)[C@@H](O)[C@@H](O[C@H]5[C@H](O)[C@@H](O)[C@@H](O[C@H]6[C@H](O)[C@@H](OC[C@H](C)O)[C@@H](O[C@H]7[C@H](O)[C@@H](OC[C@H](C)O)[C@@H](O[C@H]8[C@H](O)[C@@H](O)[C@@H](O[C@@H]([C@@H]1O)[C@@H](CO)O2)O[C@@H]8CO)O[C@@H]7CO)O[C@@H]6CO)O[C@@H]5CO)O[C@@H]4CO)O[C@@H]3CO	-12.1%
CCc1ccc(OCC(=O)N(C)CCC#N)c(Br)c1	?
COc1cccc(C2CC(c3cccs3)Nc3ncnn32)c1 (stereo not drawn)	1.9%
NC(=O)CN1C(=O)C2C3C=CC(C3)C2C1=O (stereo not drawn)	-4.1%
CCC(NC(=O)c1ccccc1NC(=O)c1ccco1)C(=O)NC1CCCCC1 (stereo not drawn)	487.6%[activator]
Cc1c(=O)n(OCc2ccccn2)c2ccccc2[n+]1[O-]	-27.4%
C[N+](C)(C)CCN[N@@+]1(C)CCCc2ccccc21	-15.6%[11.4 µM]
O=C(COc1ccc(Cl)cc1)NCc1nnc(SCC(=O)N2CCCCC2)o1	1.8%
O=C(NC1CCCCC1)C(c1ccco1)N(Cc1cccs1)C(=O)Cn1nnc2ccccc21 (stereo not drawn)	5.3%
O=C(CSc1ncnc2c1cnn2-c1ccccc1)Nc1ccc2c(c1)OCO2	?
CC1CCC(C(=O)O)NC1c1ccc(C#CCN(C)C)cc1 (stereo not drawn)	9.9%[11.4 µM]
N#CC1(O)CCCCC1	5.6%
O=C1CCCN1CCC1CCN(C(=O)Nc2ccccc2)CC1	12.6%
COc1ccc(C2(C(=O)N3CCCC3)CCOCC2)cc1OC	10.5%
CS(=O)(=O)N1CCC[C@@]2(CCN(c3ccncc3)C2)C1	-5.7%
COc1ccc2cc(C(=O)OC(C)C)sc(=O)c2c1OC	?
CCOC(=O)CC(C(=O)OCC)P(=O)(c1ccccc1)c1ccccc1 (stereo not drawn)	0.4%
NC(=O)c1ccccc1NC(=O)CN1CCOCC1	0.5%
CCC(O)CNc1nc(-n2nc(C)cc2C)nc2sc3c(c12)CCCC3 (stereo not drawn)	-5.3%
CCOC(=O)CCN1C(=O)[C@H]2[C@H]3[C@H](O)[C@H](O)C/C(=N/OC[C@@H](O)COCc4ccco4)[C@@H]3CC[C@@H]2C1=O	4.8%[11.4 µM]
CCOc1ccc(S(=O)(=O)n2nnc3ccccc32)cc1C	11.8%
CCOc1ccc2[nH]c(=O)c(CN(C(=O)N3CCOCC3)C3CC3)cc2c1	?
CCc1cc(Br)ccc1NC(=O)C1CCCO1 (stereo not drawn)	0.0%
Cc1ccc(C(=O)CC(C(=O)O)n2ccc(C)n2)cc1 (stereo not drawn)	-10.1%
Cc1cc(OCC(=O)O)c2cccc(C)c2n1	4.9%
Cc1cc(C)c(OCC(=O)Nc2ccccc2N2CCOCC2)c(C)c1	5.1%
O=C(CSc1nnc(CNc2ccc(Cl)cc2)o1)Nc1nc2c(s1)CCCC2	-1.0%
CCOc1cc(C2c3c(oc4cc(C)c(Cl)cc4c3=O)C(=O)N2Cc2ccco2)ccc1O (stereo not drawn)	?
O=C(Nc1ccc(NC(=O)c2ccco2)nc1)c1cccnc1	-11.5%
CCOc1ccc(C(CC(=O)O)NC(=O)c2ccco2)cc1OC (stereo not drawn)	-2.7%
O=C(CCCC(=O)N1CCCc2ccccc21)N1CCCc2ccccc21	-5.2%
OC[C@@H]1O[C@H](O)[C@@H](Cl)[C@H](O)[C@@H]1O	2.6%
CC(C)C1Oc2ccccc2N(CC(=O)NCCCN2C(C)CCCC2C)C1=O (stereo not drawn)	9.1%
CCCC(=O)Nc1nc2ccc(OC)cc2s1	-9.8%
O=C(Nc1cc(Cl)ccc1O)C1CCCO1 (stereo not drawn)	-5.5%
O=C(OCc1cc2ccccc2[nH]c1=O)c1ccccc1	-3.3%
O=C(CCCCCN1C(=O)CCC1=O)Nc1ccc2c(c1)OCO2	4.4%
Cc1cnc(CNc2cc(-c3ccoc3)ncn2)cn1	-16.3%
COc1ccccc1N(CC(=O)Nc1c(C)cccc1C)S(C)(=O)=O	8.8%
CCN1CCN(C(=O)c2oc(=O)c3ccccc3c2-c2ccc(C)cc2)CC1	1.4%
O=C(CSc1nnc(-c2cccnc2)n1Cc1ccco1)NCc1ccc2c(c1)OCO2	-4.3%
CC1(C)Cc2cccc(OCC(=O)N3CCN(S(=O)(=O)c4ccc(F)cc4)CC3)c2O1	-1.0%
CC1CCc2cc(F)ccc2N1C(=O)CSc1nnc(-c2cccs2)n1C (stereo not drawn)	4.8%
CCc1nc(N2CCCC2C(=O)O)c2oc3ccccc3c2n1 (stereo not drawn)	2.7%
CC(=O)OC[C@@H]1O[C@H](C/C=N\O[C@@H](C)CN2CCCCc3nc(C)c(C)cc32)C=C[C@@H]1OC(C)=O	3.9%[11.4 µM]
c1ccc(-n2ncc3c(NCc4ccccn4)ncnc32)cc1	31.6µM*
COc1ccccc1NC(=O)N(Cc1ccco1)Cc1cc2cccc(C)c2[nH]c1=O	2.0%
Cc1ccc(NC(=O)C2C(=O)N(CCO)C3(C)CC2c2ccccc2O3)cc1 (stereo not drawn)	1.8%
Nc1nnc(SCCOc2ccc(Br)cc2)s1	7.0%
Cc1cc(C)c2c(n1)nn1c(N3CCN(c4ccccc4)CC3)cc(C)nc21	?
CC(=O)c1ccc(OC(=O)c2cccs2)cc1	9.1%

Screens as filed in PubChem BioAssay.

A portion of the library; count on the stated rates, not on these rows.
